Bioassay records (PubChem BioAssay)
Cruzain noTriton – blocks cruzain activity in detergent-free assay; Potency, µM, without a hit: max response, negative = inhibition, usual class: inhibitors; purified cruzain, Z-FR-AMC fluorescence, no detergent; actives 2.3% (n = 200,000); P25779; AID 1476; active = well fitted curve in the direction sought with a large enough effect; inconclusive = small, poorly fitted or top-dose-only effect, or another doubt; inactive = no such curve, though single readings can be large; an effect the other way counts as inactive or inconclusive;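 note: plate controls were enzyme without inhibitor for no effect and buffer without enzyme for full effect; nearly all actives have a fitted effect of over 40% in size; top concentration of the series not given in the record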
Target sequence (P25779 123-467 limits assumed): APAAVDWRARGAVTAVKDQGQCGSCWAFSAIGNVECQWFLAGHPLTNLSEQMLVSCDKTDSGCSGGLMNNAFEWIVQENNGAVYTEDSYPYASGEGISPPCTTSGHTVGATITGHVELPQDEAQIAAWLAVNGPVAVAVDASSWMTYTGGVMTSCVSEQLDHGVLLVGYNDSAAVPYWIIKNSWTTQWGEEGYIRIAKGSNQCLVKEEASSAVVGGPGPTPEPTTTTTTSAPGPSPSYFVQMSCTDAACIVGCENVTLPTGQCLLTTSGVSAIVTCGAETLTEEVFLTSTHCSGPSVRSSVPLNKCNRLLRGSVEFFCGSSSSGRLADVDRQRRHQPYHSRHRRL
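Purified cruzain at 1.5 nM, pre-incubated 15 min with compound at room temperature in 100 mM sodium acetate pH 5.5, 5 mM DTT, 0.00005% Triton X-100. Reaction started with 2 uM Z-FR-AMC; AMC fluorescence increase over 60 s gives rate.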
NS1 inh – influenza NS1 inhibition | Potency, µM (top dose mostly 46.1 µM), without a hit: at the highest dose activity, positive = more growth | actives 0.4% (n = 270,000) | S. cerevisiae slowed by influenza A NS1, growth recovery by OD600; note: actives are rising curves; nearly all actives have a fitted effect of over 50% in size
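S. cerevisiae expressing influenza A NS1, grown in glucose, washed, then diluted 1:100 into pH 6.0 -URA galactose medium with 23 nl compound. Growth recovery read as OD600; NS1-free strain serves as control.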
RE007 growth inh – less growth of the S. pombe RE007 Vpr strain. S. pombe RE007 Vpr strain, BacTiter-Glo ATP luminescence, 24 h; control for the full effect not named in the record. Potency, µM (top dose mostly 92.2 µM), inactives show at the top dose activity change, negative = less growth. actives 0.21% (n = 360,000). AID 651644; active = well fitted falling curve with a large enough effect; inconclusive = small, poorly fitted or top-dose-only effect; inactive = no such curve, though single readings can be large or run the other way;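 note: % is set by controls: 0 for no effect and ±100 for the full control effect; nearly all actives have a fitted effect of over 50% in size; the assay follows cell death caused by Vpr and the record does not say whether a fall means rescue or toxicity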
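Fission yeast RE007 carrying one integrated HIV-1 vpr copy, seeded at OD 0.01 in PMG+AL medium with 23 nL pinned compound. Grown 24 h at 30 degrees; viability read by BacTiter-Glo luminescence after 5 min.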
Cruzain inh Det – inhibitors of Trypanosoma cruzi cruzain with detergent | P25779 | actives 0.43% (n = 200,000) | purified cruzain, Z-FR-AMC fluorescence, 0.01% Triton | Potency, µM, for inactives: max response, negative = inhibition, hits mostly inhibitors; active = well fitted curve in the direction sought with a large enough effect; inconclusive = small, poorly fitted or top-dose-only effect, or another doubt; inactive = no such curve, though single readings can be large; an effect the other way counts as inactive or inconclusive;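 note: plate controls were neutral wells for no effect and buffer without enzyme for full effect; nearly all actives have a fitted effect of over 40% in size; top concentration of the series not given in the record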
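Read-out: AMC fluorescence (360 nm excitation, 450 nm emission), four reads over 2 min, first-to-third difference used. Conditions: cruzain 1.5 nM, Z-FR-AMC 2 uM, pH 5.5 acetate, 5 mM DTT, 0.01% Triton X-100.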
2A StopGo – FMDV 2A StopGo reporter, luciferase signal; human cells with a luciferase reporter of 2A StopGo recoding; control for the full effect not named in the record; Potency, µM (doses to about 57.9 µM), without a hit: at the highest dose signal change, negative = less light; actives 1.2% (n = 410,000); AID 1159524; active = well fitted falling curve with a large enough effect; inconclusive = small, poorly fitted or top-dose-only effect; inactive = no such curve, though single readings can be large or run the other way; tested in HEK293T cells; note: % is set by controls: 0 for no effect and ±100 for the full control effect; nearly all actives have a fitted effect of over 45% in size; luciferase light after 4 h
SARS PLpro yeast – blocks SARS-CoV papain-like protease in a yeast assay; S. cerevisiae expressing SARS-CoV PLpro, growth rescue; control for the full effect not named in the record; Potency, µM (top dose mostly 32.9 µM), without a hit: at the highest dose activity, positive = growth rescue; AID 485353; actives 0.19% (n = 330,000); note: 0% is about no effect; nearly all actives have a fitted effect of over 55% in size; growth read by luminescence after 48 h
Marburg entry inh – blocks Marburg virus binding to or entry into cells. Marburg virus pseudotyped entry inhibition, cell reporter; control for the full effect not named in the record; about a third of the inactives were read at about 46 µM. Potency, µM (titrated, usually from 37.8 µM), for the others: at the top dose activity change, negative = inhibition, most hits filed as inhibitors. actives 1.8% (n = 300,000); active = well fitted inhibition curve with a large enough effect; inconclusive = small, poorly fitted or top-dose-only effect, or effect the other way; inactive = flat fitted curve, though single readings scatter; tested in HEK293 cells; about a fifth of its hits are not listed in these tables; note: % is set by controls: 0 for no effect and ±100 for the full control effect; luciferase read-out
LASV entry inh – blocks Lassa virus binding to or entry into cells; Lassa virus pseudotype entry inhibition, cell reporter; control for the full effect not named in the record; Potency, µM (top dose mostly 37.9 µM), for inactives: at the top dose activity change, negative = inhibition, most hits filed as inhibitors; actives 1.2% (n = 300,000); AID 540256; active means well fitted inhibition curve with a large enough effect; inconclusive means small, poorly fitted or top-dose-only effect, or effect the other way; inactive means flat fitted curve, though single readings scatter; tested in HEK293 cells; note: % is set by controls: 0 for no effect and ±100 for the full control effect; nearly all actives have a fitted effect of over 50% in size; luciferase read-out
* hit, by the source's call; u = inconclusive; x = not tested or not shown; & = joins results of further samples; [ ] = another dose, or the depositor's remark. Unless noted, calls come from the whole dose curve; as a rule, active means well fitted rising curve with a large enough effect; inconclusive means small, poorly fitted or top-dose-only effect; inactive means no such curve, though single readings can be large or run the other way. Potency is the fitted concentration of half-maximal effect. Rows were taken by chance; any-hit rate near 4.7%.

SMILES | Cruzain noTriton | NS1 inh | RE007 growth inh | Cruzain inh Det | 2A StopGo | SARS PLpro yeast | Marburg entry inh | LASV entry inh
Cc1[nH]c2ccccc2c1C(=O)C(C)OC(=O)c1ccc([N+](=O)[O-])o1 (stereo unspecified) | x | x | -17% | x | u | -26% | -2%[46.1 µM] | x
Cc1ccc(-c2ccc(CCC(=O)O)n2-c2cccc(C)c2C)cc1 | 29% | x | x | -21% | -16% | x | 6%[46.1 µM] | u
Cn1cc(C=O)c2ccccc21 | x | 3% | -17% | x | 6% | -1% | x | x
Cc1ccccc1S(=O)(=O)Nc1cccnc1 | -1% | -3% | 12% | 0.4% | 7% | 7% | -1%[46.1 µM] | 4%
COc1ccc(CN2CSC(=S)N(Cc3ccccc3)C2)cc1 | x | -27% | -6% | x | -25% | 0% | x | x
COc1cccc(CNc2nc3ccc(C)cc3n3cnnc23)c1 | x | 1% | 4% | x | 5% | 1% | x | x
CCc1c(C(=O)NN2C(=O)C3C4CCC(O4)C3C2=O)csc1C (stereo unspecified) | 8% | 10% | -7% | 0.2% | -5% | 8% | 1% | 12%
Cn1cc(C2=C(c3ccc(Cl)cc3Cl)C(=O)NC2=O)c2ccccc21 | 13%&15% | -1%&-6% | -5% | -7.0%&-6.2% | -30%&-24% | -3% | u | u
O=C1/C(=C/c2cccs2)SC(=S)N1c1ccccc1 | u | 1% | -16% | -1.4% | 34%[activator] | 2% | u | u
CC1(C)CC2(CCCN(CC(O)(c3ccccc3)c3ccccc3)C2)CCO1 (stereo unspecified) | x | -5% | -11% | x | -28% | 0% | u | 9%
O=C(Nc1ccc2c(c1)OCO2)c1ccc(Cl)nc1 | 11% | -9% | -15% | 4.8% | 17% | 4% | 19% | -1%
O=C(CCNC(=O)c1ccccc1)OCN1C(=O)c2ccccc2C1=O | 11% | 14% | 22% | -0.9% | 0% | -2% | 19%[46.1 µM] | 16%

Single values from the list:
2A StopGo result of `Cn1cc(C=O)c2ccccc21` = 6%
Cruzain noTriton result of `CCc1c(C(=O)NN2C(=O)C3C4CCC(O4)C3C2=O)csc1C` (stereo unspecified) = 8%

Additional structures:
SMILES | Cruzain noTriton | NS1 inh | RE007 growth inh | Cruzain inh Det | 2A StopGo | SARS PLpro yeast | Marburg entry inh | LASV entry inh
Cc1ccc(C(c2nnnn2CC2CCCO2)N2CCN(C(=O)c3ccco3)CC2)cc1 (stereo unspecified) | 20% | -1% | 0% | 6.9% | 13% | 6% | 0% | -21%
CC(C)c1cc(C(=O)NCc2ccc(F)cc2)no1 | 5% | x | x | -4.2% | 40%[activator] | x | u | -1%[46.1 µM]
O=C(COC(=O)c1cccc(-n2cnnn2)c1)c1ccc(Br)cc1 | x | x | -1% | x | 21% | 3% | 18%[46.1 µM] | 8%
Cc1cccc(-n2c(SCc3nc(-c4ccccc4C)no3)nnc2-c2ccccc2)c1 | -16% | x | x | 0.9% | -20% | x | -4%[46.1 µM] | -1%[46.1 µM]
Fc1ccc(-n2c(CN3CCCCC3)n[nH]c2=S)cc1 | x | x | 20% | x | 8% | 4% | 9%[46.1 µM] | 7%
Cc1ccc(NCC(=O)Nc2cccc(F)c2)cc1S(=O)(=O)N1CCCCCC1 | x | -1% | 1% | x | u | -2% | u | u
COc1ccc(C2C(C#N)=C(N)Oc3cc(C)[nH]c(=O)c32)c(OC)c1OC (stereo unspecified) | -1% | -6% | -3% | 12% | 1% | 0% | 4% | -14%
N#Cc1cc(C(=O)c2ccccc2OCC(=O)Nc2ccccc2Cl)cn(C2CCCCC2)c1=O | -11% | u | 2% | 0.3% | 0% | 8% | u | u
COc1ccc(S(=O)(=O)N2CCC(C(=O)NCCC(=O)NCc3ccccc3OC)CC2)cc1 | x | 2% | 0% | x | -2% | -2% | x | x
COc1cc(CN2CCC(n3nccc3NC(=O)C3CC3)CC2)cc(OC)c1 | x | 2% | -5% | x | -6% | 8% | 4% | 9%
Cc1cc(F)ccc1NC(=O)Cn1c(=O)ccc2cc(S(=O)(=O)N3CCC(C)CC3)ccc21 | -7% | x | x | -2.8% | -8% | x | x | -9%[46.1 µM]
CCCCc1nn2c(=O)cc(COC(=O)c3ccccc3NC(=O)C(C)(C)C)nc2s1 | -4% | x | x | 10% | -6% | x | x | u
O=C(O)C1=C[C@@H](C2CC2)C[C@@H](OCc2ccc(CO)cc2)O1 | x | 0% | 3% | x | -11% | -1% | x | x
Clc1ccc(-c2nc(-c3cc4cc(Cl)ccc4o3)cs2)cc1 | x | 9% | -7% | x | 0% | 1% | x | x
O=C(c1cccnc1)N1CCN(S(=O)(=O)c2ccc(F)cc2)CC1 | x | 7% | 8% | x | -2% | 1% | -21%[14.2 µM] | -3%
COc1ccc(NC(=O)C/C(C)=N/NC(=O)c2ccco2)c([N+](=O)[O-])c1 | x | 9% | -23% | x | 10% | -3% | 8%[46.1 µM] | 1%[46.1 µM]
O=C(O)c1ccc(CSC2CCCCC2)cc1 | x | -40% | 16% | x | 3% | -3% | 12%[46.1 µM] | 7%[46.1 µM]
CCCCNC(=O)CC1N=C2c3ccccc3N=C(SCC(=O)Nc3ccccc3OC)N2C1=O (stereo unspecified) | -5% | 7% | 4% | -3.1% | -17% | -16% | u | 4%
CCN(C(=O)CN(C)Cc1cccc(Cl)c1Cl)c1c(N)n(Cc2ccccc2)c(=O)[nH]c1=O | -1% | -3% | -4% | -1.1% | -17% | 20% | u | -5%
C/C(Cl)=C/Cn1c(SCC(C)C)nc2c1c(=O)[nH]c(=O)n2C | u | 0% | 10% | -1.0% | u | -1% | 9%[46.1 µM] | -12%
COCCCNC(=O)CN(c1ccc(OC)cc1)S(=O)(=O)c1ccc(NC(C)=O)cc1 | 0% | -8% | -10% | 2.2% | 8% | 0% | -26% | -22%
O=S1(=O)N=C(N2CCCC2)c2ccccc21 | x | 14% | -29% | x | -5% | 4% | u | u
Cc1ccc2nc(CCCc3nc4ccc(C)cc4[nH]3)[nH]c2c1 | x | 5% | -8% | x | -14% | -1% | u | u
CCCCNC(=O)NCCN1CCOCC1 | x | 3% | 2% | x | -4% | 0% | -27%[46.1 µM] | 20%[46.1 µM]

The final 2 entries of the section above open the next one:
SMILES | Cruzain noTriton | NS1 inh | RE007 growth inh | Cruzain inh Det | 2A StopGo | SARS PLpro yeast | Marburg entry inh | LASV entry inh
Cc1ccc2nc(CCCc3nc4ccc(C)cc4[nH]3)[nH]c2c1 | x | 5% | -8% | x | -14% | -1% | u | u
CCCCNC(=O)NCCN1CCOCC1 | x | 3% | 2% | x | -4% | 0% | -27%[46.1 µM] | 20%[46.1 µM]
S=c1[nH]nc(-c2cc(-c3ccccc3)n[nH]2)n1/N=C/c1cccc(Cl)c1 | x | -1% | -2% | x | u | 0% | -18%[46.1 µM] | u
COC(=O)[C@@]1(Cc2ccc(OC)cc2)[C@@H]2C(=CC(=O)[C@H]2CC(=O)C(=O)N(C)C)CN1C(=O)c1ccccc1 | u | -19% | -8% | -0.8%&-6.4% | 25µM* | 3% | u | u
CCn1c(SCCC(=O)O)nnc1-c1cccnc1 | 5% | -3% | 1% | 3.4% | -6% | -13% | -24% | -1%
Cc1nc(SCC(=O)Nc2ccc(N3CCOCC3)cc2)nc(C)c1C | 5% | 1% | 25% | 3.1% | -15% | -1% | 1% | 7%
Cc1ccc(-c2c(C)c(-c3ccc(F)cc3)nc(N)c2C#N)o1 | -9% | 0% | -20% | -1.8% | 0% | -3% | u | 0%
CCOC(=O)c1c(NC(=O)CSc2nnnn2-c2ccccc2)sc2c1CC(C)(C)NC2(C)C | x | 19% | -7% | x | -26% | 4% | u | u
NNC(=O)CSc1nc(-c2ccccc2)nc2c1CCCC2 | x | u | 0% | x | -9% | 1% | 4% | u
COCCNC(=O)C1CCCN(c2nn3c(=O)cc(C)nc3s2)C1 (stereo unspecified) | -1% | 2% | -11% | 1.8% | 14% | -9% | 8% | 1%
COCCCn1c(=O)/c(=C\c2ccccc2OC(F)F)s/c1=C(/C#N)C(=O)NCCOC | x | -3% | 4% | x | -15% | 5% | x | x
COc1ccc(Br)c(C(=O)OCc2cc(=O)oc3cc(C)ccc23)c1 | x | -1% | -10% | x | 1% | -5% | u | -1%
Cc1ccc(Cn2ccc(NC(=O)c3cc4nc5c(c(C(F)(F)F)n4n3)CCc3ccccc3-5)n2)cc1 | 0% | -9% | x | 2.9% | x | -5% | -10% | x
COc1ccc(-c2c3c(=O)n(C)c(=O)n(C)c3cn2Cc2ccccn2)cc1 | 2% | -8% | 15% | 4.1% | 2% | -7% | 1% | -10%
CC(=O)OCC1=C(C(=O)O)N2C(=O)C(NC(=O)c3ccc(COc4c(C)cccc4Cl)o3)C2SC1 (stereo unspecified) | x | x | 13% | x | -8% | 2% | 5%[46.1 µM] | -29%[46.1 µM]
COc1ccc(N(Cc2cccs2)C(=O)COc2ccc(C(C)C)cc2)cc1 | -10% | x | x | -12% | u | x | -14%[46.1 µM] | 14%[46.1 µM]
CCC(=O)Nc1ccc2oc(-c3ccccc3Br)nc2c1 | 18% | -154% | -3% | 1.3% | -2% | -26% | u | u
CC1CCCCN1Cc1nc2c(c(=O)n(C)c(=O)n2C)n1Cc1c(F)cccc1Cl (stereo unspecified) | x | -40% | -16% | x | -24% | 1% | x | x
O=C(CN1C(=O)C2(SCC(=O)N2c2ccccc2)c2ccccc21)NCCc1ccccc1 (stereo unspecified) | 8% | x | x | 0.0% | -6% | x | x | 12%[46.1 µM]
CC(=O)c1c(C(C)=O)c(C)n(-c2ccc(C(=O)O)cc2)c1C | -6% | 6% | -10% | 3.1% | 0% | 10% | -18% | 2%
CC(=O)c1ccn(S(=O)(=O)c2ccc(Cl)cc2)c1 | x | -3% | -2% | x | -26% | -1% | x | x
